# Source: PubChem
# T cruzi inh: T. cruzi replication inhibition; T. cruzi beta-gal in NIH3T3, luminescence, 90 h; inhibition, % (no concentration beside the values); 300,000 compounds, 1.4% hits;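 active = mean inhibition across valid replicates above about 55%, limit read from the data; inconclusive = mean below that limit but half or more replicates reach it; inactive = mean below it, under half of replicates reach it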;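 also: signal also drops with host cell toxicity which is not excluded here; 0% = plate median of DMSO wells and 100% = zero luminescence signal; higher percent means less beta-gal luminescence so fewer parasites; stock transfer was 50 nL into about 50 µL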
# AF4-AF9 inh: blocks AF4 peptide binding to human AF9; AlphaScreen, biotin-AF4 peptide binding to FLAG-AF9; inhibition, % at 10 µM; 350,000 compounds, 0.47% hits;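 active = every replicate reaching a set inhibition limit, whatever the replicate mean, cut at about 25% in these data; inconclusive = mean inhibition reaches that limit but some replicates miss it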;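 also: 0% = plate neutral control median and 100% = total signal loss; the record names both 10 and 1 µM as test concentration; the first replicate is given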
# Target sequence (P42568 whole entry, looked up): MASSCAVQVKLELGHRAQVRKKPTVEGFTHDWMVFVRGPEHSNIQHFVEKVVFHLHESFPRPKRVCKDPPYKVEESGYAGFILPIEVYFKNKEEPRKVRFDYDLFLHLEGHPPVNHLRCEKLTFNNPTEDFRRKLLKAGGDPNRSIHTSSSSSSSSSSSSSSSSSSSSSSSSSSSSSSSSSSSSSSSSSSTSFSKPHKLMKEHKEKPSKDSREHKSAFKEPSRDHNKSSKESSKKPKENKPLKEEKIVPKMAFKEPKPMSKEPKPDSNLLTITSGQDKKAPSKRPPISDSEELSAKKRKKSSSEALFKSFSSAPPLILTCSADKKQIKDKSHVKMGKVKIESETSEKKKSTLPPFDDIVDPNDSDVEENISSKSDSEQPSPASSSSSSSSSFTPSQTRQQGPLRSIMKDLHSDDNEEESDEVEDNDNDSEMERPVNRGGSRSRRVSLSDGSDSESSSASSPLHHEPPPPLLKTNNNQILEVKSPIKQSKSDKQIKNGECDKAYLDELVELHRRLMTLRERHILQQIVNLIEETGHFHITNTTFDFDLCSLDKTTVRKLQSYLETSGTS
# Calb FLC: affects C. albicans growth with fluconazole; C. albicans CaCi-2 (fluconazole-resistant clinical isolate) + fluconazole, Alamar Blue growth, 48 h; growth inhibition, % (test concentration not listed); 300,000 compounds, 0.57% hits;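 active = most replicates above 75%; inconclusive = exactly half above 75%; inactive = most below 75%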;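 also: all wells also contain fluconazole at 8 µg/ml as a sub-toxic cotreatment; 0% = median of DMSO wells and 100% = median of geldanamycin control wells; wells of about 8 µL received 7.5 nL stock; the first replicate is given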
# ALR inh: human ALR oxidase inhibition via reduced H2O2 | purified ALR, DTT oxidation, H2O2 HRP-luminol luminescence | inhibition, % (concentration not given with the values) | 290,000 compounds, 3.8% hits | AID 485317;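 active = mean and each replicate at 75% or more; inconclusive = only one of the two met; inactive = neither met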;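 also: stock transfer was 7.5 nL into about 7.5 µL; 0% = neutral wells and 100% = wells with inactivated enzyme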
# Target sequence (P55789 whole entry, looked up): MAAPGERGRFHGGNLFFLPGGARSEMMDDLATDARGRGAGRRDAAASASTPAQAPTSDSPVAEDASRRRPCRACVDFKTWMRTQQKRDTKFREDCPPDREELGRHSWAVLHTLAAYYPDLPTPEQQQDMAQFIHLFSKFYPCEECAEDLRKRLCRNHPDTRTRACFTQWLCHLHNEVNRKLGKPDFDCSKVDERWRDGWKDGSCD
# Ecoli rRNA inh: inhibitors of bacterial rRNA selective over humanized ribosomes. E. coli WT GFP vs humanized-ribosome RFP mutants, fluorescence, 24 h; stronger effect = lower value; DMSO median 0, no signal -100. GFP signal change (wild-type ribosome), % (concentration not given with the values). 350,000 compounds, 1.6% hits. AID 720706;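 active = significant combined selectivity score with lowered wild-type GFP, culture density cut under 30%, mutant RFP and density less affected; inactive = any of these conditions unmet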; also: one replicate is shown; some compounds called inactive have numbers as strong as hits
# FGF22 binding: binders of recombinant human FGF22 by thermal shift. 340,000 compounds, 1.5% hits. AID 651658. SYPRO orange fluorescence; percent of sucrose octasulfate shift, DMSO zero. calls only at 9.99 µM;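 active = melting point raised past a set limit in the mean and every replicate; inconclusive = no clear call; three in four hits are not shown here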
# Target sequence (Q9HCT0 whole entry, looked up): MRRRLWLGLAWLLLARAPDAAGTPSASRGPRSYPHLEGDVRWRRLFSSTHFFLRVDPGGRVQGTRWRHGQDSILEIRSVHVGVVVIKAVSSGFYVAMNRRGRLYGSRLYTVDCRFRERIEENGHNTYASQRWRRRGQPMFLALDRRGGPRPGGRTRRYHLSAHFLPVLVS
# Beta apoptosis: blocks beta cell apoptosis; INS-1E cytokine-induced death, ATP luminescence, 48 h; percent of positive-control rescue, neutral wells zero; protection from apoptosis, % (test concentration not listed); 300,000 compounds, 0.8% hits;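 active = all replicates at 75% or more, or half of them and the mean; inconclusive = half reach 75% but not the mean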;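 also: 0% = cytokine-treated negative control wells and 100% = positive control rescue; higher means more ATP so stronger rescue from cytokine killing; wells of about 40 µL received 100 nL stock; the first replicate is given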
# RanGTP-Impb inh: disruptors of Ran-importin-beta complex formation – biochemical, FRET, CFP-Ran, YFP-importin-beta, homogeneous, primary screen. cell-free CFP-Ran/YFP-importin-beta FRET ratio. inhibition, % (test concentration not listed). 300,000 compounds, 1.1% hits. AID 2216;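 active = most replicates above 15%; inconclusive = exactly half above 15%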;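 also: 0% = DMSO wells and 100% = Ran loaded with GDP instead of GTP; wells of about 40 µL received 100 nL stock; the first replicate is given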
# Ecoli rRNA inh OD600: recorded beside Ecoli rRNA inh, whose call it bears; OD600 change, %; measured here: OD600 growth;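 optical density of the mix in the first replicate; 0 = DMSO median and -100 = no signal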
# Ecoli rRNA inh RFP: recorded beside Ecoli rRNA inh, whose call it bears; RFP signal change, %; measured here: RFP humanized mutant strains;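 first replicate; 0 = DMSO median and -100 = no signal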
# Active calls of the source: *; i = inactive; ? = inconclusive; / = no result given.
SMILES	T cruzi inh	AF4-AF9 inh	Calb FLC	ALR inh	Ecoli rRNA inh	Ecoli rRNA inh OD600	Ecoli rRNA inh RFP	FGF22 binding	Beta apoptosis	RanGTP-Impb inh
CN1CCN(/C(=N\S(=O)(=O)c2ccc(F)cc2)c2ccccc2)CC1	39	/	2	-3	/	/	/	/	-1	1.7
COc1cc(C2(c3ccc(O)c(OC)c3)C(=O)Nc3c(C)cc(Br)cc32)ccc1O	-7	-3.9	2	80*	-22	-24	-1.6	i	-2	2.8
S=c1[nH]nc(-c2cccs2)n1/N=C/c1c(Cl)cccc1Cl	-14	-3.8	11	?	6	1	-1.7	/	-4	0.4
O=C(Nc1ccc(N2CCN(C(=O)c3cccs3)CC2)cc1)c1ccccc1Cl	5	-1.9	-2	3	-1	1	1.9	i	/	-4.4
O=C(c1cccnc1)N(Cc1ccccc1)C1(C(=O)Nc2ccccc2)CCCCC1	46	/	-1	/	/	/	/	/	-19	2.8
Cc1ccc(/C=C2/NC(=O)[C@H](C)NC2=O)cc1	-13	1.2	-12	/	8	8	-0.4	i	/	0.5
COc1ccc(C(C(=O)OC(C)CN(C)C)c2ccccc2)cc1 (stereo not drawn)	-2	/	-9	-4	/	/	/	/	2	0.3
COc1ccccc1N(Cc1cc2ccc(C)cc2[nH]c1=O)C(C)=O	6	2.3	0	-7	0	5	0.1	i	-5	5.1
O=C(Nc1nnc(-c2ccccc2)o1)c1cccc(S(=O)(=O)N2CCOCC2)c1	/	3.9	/	9	-58	-80	-17	i	5	/
CCN(CC)C(=O)Cc1c(OC)ccc2cc(Br)ccc12	-16	-2.3	14	-5	6	0	0.3	i	3	-2.0
CCCCNc1c(-c2cccc(-c3cc(C(C)=O)cs3)c2)nc2ccc(C)cn12	25	6.3	1	/	-3	-4	0.0	i	2	6.0
Cc1ccccc1CS(=O)(=O)Cc1ccc(C(=O)NCCCN2CC(C)CC(C)C2)o1 (stereo not drawn)	-4	-5.0	9	-4	7	2	1.4	i	-6	2.0
CCn1nnc(-c2ccccc2NS(=O)(=O)c2ccc(S(=O)(=O)N(C)C3CCCCC3)cc2)n1	18	/	-22	-1	/	/	/	/	/	-0.8
CC1CC(C)(C)N(C(=O)CSc2ccc(-c3ccc(F)cc3)nn2)c2ccccc21 (stereo not drawn)	51	-1.8	19	4	9	-8	4.1	i	14	0.7
C/C=C/c1ccccc1OCc1ccc(C(=O)OC)o1	-6	/	-8	0	/	/	/	/	1	9.6
COc1cccc(/C=C/C(=O)OCC(=O)NCC2CCCCC2)c1OC	/	-2.1	/	/	9	8	1.2	i	-3	/
Cn1c(-c2ccccc2)c(CCO)c2ccccc21	-4	/	-22	/	/	/	/	/	2	0.8
c1coc(-c2nc3nc4ccccc4n3nc2-c2ccco2)c1	5	/	20	/	/	/	/	/	9	0.2
Cc1ccc(/C(N)=N/OC(=O)c2ccc3ccccc3c2)cc1	2	0.0	0	-7	/	/	/	i	-5	-0.2
COc1ccc(N2CCN(CC(=O)NC(=O)NCc3ccccc3)CC2)cc1	/	-0.2	/	/	2	17	-0.6	i	-2	/
COC(=O)CCc1sc(Nc2ccccc2)nc1-c1ccc(OC)cc1	-8	/	18	-5	/	/	/	/	-3	5.7
COc1ccc(-c2cc(=O)oc3cc(OCC(C)=O)ccc23)cc1	5	1.8	10	2	8	8	-0.7	i	2	1.4
N#Cc1ccccc1CN1C(=O)S/C(=C/c2cccn2-c2ccc(C(=O)O)cc2)C1=O	-6	/	20	98*	/	/	/	/	-2	0.8
C=CCNC(=O)c1ccccc1NC(=O)COc1ccccc1	6	0.8	0	-2	-10	-10	-2.3	i	-9	4.0
CN1CCN(C(=O)c2cc([N+](=O)[O-])ccc2Cl)CC1	-18	2.2	-8	-4	10	9	0.3	i	-1	-0.8

# Further compounds follow:
SMILES	T cruzi inh	AF4-AF9 inh	Calb FLC	ALR inh	Ecoli rRNA inh	Ecoli rRNA inh OD600	Ecoli rRNA inh RFP	FGF22 binding	Beta apoptosis	RanGTP-Impb inh
COC(=O)C1=C(N)N(c2ccccc2F)C2=C(C(=O)CC(C)(C)C2)C1c1ccc(OC)c(OC)c1 (stereo not drawn)	16	/	-11	/	/	/	/	/	-4	-3.6
O=C(c1ccncc1)N1N=C(c2ccc(Br)cc2)CC1c1ccccc1O (stereo not drawn)	17	11	4	/	-52	-75	-8.0	i	3	-0.3
CCOc1cccc(NC(=O)C2CC(=O)NC(=Nc3ccccc3)S2)c1 (stereo not drawn)	2	/	23	-6	/	/	/	/	4	1.0
CCOc1ccccc1NC(=S)N1C2CCC1CC(NC(=O)NC13CC4CC(CC(C4)C1)C3)C2 (stereo not drawn)	6	1.9	-45	-1	-10	-11	-2.8	i	10	?
Cc1ccc(C(=O)C2=C(O)C(=O)N(Cc3ccco3)C2c2ccc(N(C)C)cc2)o1 (stereo not drawn)	-14	11	22	73	-7	-11	7.6	i	-5	?
Cc1cccc(NC(=O)Nc2cccc(C)n2)n1	-3	/	3	1	/	/	/	/	-2	2.9
CCN(C(=O)c1cccc(S(=O)(=O)N(C)C)c1)C12CC3CC(CC(C3)C1)C2	15	0.8	-4	/	-13	-13	-6.9	i	17	0.4
O=C(NC(=S)N1CCN(c2ccc(Cl)cc2[N+](=O)[O-])CC1)c1cccs1	28	/	31	24	/	/	/	/	7	6.2
COc1ccccc1-n1cc([C@@H]2C[C@H]3CN(c4ccccc4)C(=O)[C@]34CCCN24)cn1	53	2.0	-4	-12	6	1	13	i	55	1.2
COc1ccc(C(=O)C2CCCN(C(=O)C3CCOCC3)C2)c(C)c1 (stereo not drawn)	3	0.6	8	1	0	0	-3.4	i	-1	2.4
CC1(C)Cc2nc3oc4c(=S)nc[nH]c4c3cc2CO1	25	/	25	96*	/	/	/	/	-6	1.5
CCOC(=O)c1c2c([nH]c(=S)c1C#N)CCCC2	-14	2.3	2	-1	9	-12	-4.3	i	0	1.4
O=C1c2cccc(OCc3ccc(F)cc3)c2CCN1Cc1ccc(F)cc1	-9	1.7	2	-4	-16	-25	2.3	i	13	3.5
CCc1ccc2[nH]c(=O)c(C(c3nnnn3Cc3ccco3)N3CCC(C)CC3)cc2c1 (stereo not drawn)	1	/	20	-7	/	/	/	/	3	0.8
Cc1ccc(S(=O)(=O)N2CCC3(CC2)OCCO3)cc1	-8	0.3	-6	0	-27	-37	-6.5	i	-6	-0.6
Cc1cccc(CN2CCc3c(OCC(=O)NCc4ccco4)cccc3C2=O)c1	-5	2.4	-2	/	-9	-1	15	i	-7	5.1
COc1cccc(CNCCNC(=O)c2nonc2N)c1	11	-6.6	2	-5	-11	-15	-3.4	i	3	8.7
C=CCNC(=S)Nc1ccc(Cl)cc1	7	0.0	-2	-6	4	-8	-0.7	i	-6	4.4
Cc1nccn1CCOc1ccccc1Cl	-18	-3.4	-1	6	7	4	11	i	/	5.1
CCN(CC)c1nc(-c2ccccc2)nc2c1sc(=S)n2CC	21	-3.4	4	-49	7	6	-8.1	i	-2	-1.9
COc1ccc(C2c3cc(OC)c(OC)cc3CCN2S(C)(=O)=O)cc1OC (stereo not drawn)	-11	-2.6	-1	/	13	9	0.4	/	/	/
c1cncc(N=c2scc(-c3cccc4ccccc34)n2CCCn2ccnc2)c1	47	/	-3	/	/	/	/	/	-1	1.9
N#Cc1c(NC(=O)C2CCCO2)sc2c1CCCCCC2 (stereo not drawn)	22	/	-9	8	/	/	/	/	0	2.9
N#CCCN(Cc1cccnc1)C(=O)Nc1ccccc1	-9	/	11	-14	/	/	/	/	/	-2.2
CNC(=O)COC(=O)c1cccc(S(=O)(=O)N2CCN(c3ccc(F)cc3)CC2)c1	1	-4.5	1	/	8	6	0.4	i	0	-2.4

# Next results
SMILES	T cruzi inh	AF4-AF9 inh	Calb FLC	ALR inh	Ecoli rRNA inh	Ecoli rRNA inh OD600	Ecoli rRNA inh RFP	FGF22 binding	Beta apoptosis	RanGTP-Impb inh
N/C(=N\OC(=O)c1ccc(Cl)c([N+](=O)[O-])c1)c1ccccc1	1	-3.1	8	2	/	/	/	i	4	2.3
Cc1ccc(-c2cc(C(=O)N/N=C/c3ccccc3)n[nH]2)o1	-2	0.3	-19	2	-13	-10	-0.3	i	-1	-0.7
Cc1ccc2nc(NC(=O)c3ccc(Cn4cc(Cl)cn4)o3)sc2c1	-4	/	3	-1	/	/	/	/	3	-0.8
COc1ccc(NC(=O)CC2Oc3ccccc3NC2=O)cc1 (stereo not drawn)	-18	-0.4	2	0	3	0	5.7	i	/	0.0
Cc1nc2ccc(S(=O)(=O)NC(C(=O)N3CCCC3)C(C)C)cc2s1 (stereo not drawn)	-4	3.0	-4	/	3	-3	1.8	i	/	0.3
O=C(N/N=C/c1ccc[nH]1)c1ccccc1[N+](=O)[O-]	-5	/	0	9	/	/	/	/	-4	7.5
COc1ccccc1CCc1nnc(CCC(=O)NC(C)Cc2ccsc2)o1 (stereo not drawn)	-8	-0.4	5	-1	-2	-5	2.5	i	-3	2.4
CSc1nnc(-c2ccccc2N=Cc2c(C)[nH]n(-c3ccccc3)c2=O)c(=O)[nH]1	-6	/	-8	52	/	/	/	/	5	-0.5
CCOc1cccc(-c2nnc3sc(COc4ccc(Cl)cc4)nn23)c1	-5	/	-19	1	/	/	/	/	0	2.5
COc1ccc(C(=O)NC(C)CCc2ccccc2)cc1 (stereo not drawn)	8	-1.4	-13	-7	-2	-4	6.2	i	-1	-0.2
N#Cc1cn(-c2ccccc2)nc1C(=O)c1ccccc1	-28	/	0	0	/	/	/	/	14	4.0
COc1ccc(NC(=O)c2ccco2)c(OC)c1	-9	/	-6	-8	/	/	/	/	1	0.6
CCOC(=O)c1ccc(-n2c(CN(CC)CC)nc3ccc([N+](=O)[O-])cc3c2=O)cc1	1	-15	-11	4	-6	9	-16	i	0	-0.6
O=C(c1c(F)cccc1Cl)N1CCN(S(=O)(=O)c2ccc3c(c2)OCCCO3)CC1	12	2.0	-14	4	-2	-19	-0.3	i	/	2.3
C=CCNc1nc(Nc2ccc(OC)cc2)nc(OC)n1	-17	/	38	/	/	/	/	/	2	-2.6
CCOC(=O)Cc1cc(=O)n2[nH]c(-c3ccccc3)cc2n1	-6	/	-3	-3	-4	4	9.4	/	0	1.7
CN(C)S(=O)(=O)c1ccc(Oc2ccccc2)cc1	-5	/	-15	2	/	/	/	/	-3	1.6
COC(=O)CC1COc2ccccc2N1C(=O)c1ccc(Cl)cc1 (stereo not drawn)	2	/	15	-1	/	/	/	/	-9	179*
CCOC(=O)c1c(C)[nH]c(C)c1S(=O)(=O)NCC1CCN(Cc2ccc(C)cc2)CC1	8	4.9	3	-4	7	6	0.7	i	1	1.1
O=C(COC(=O)c1ccc2c(c1)OCCO2)Nc1cc(Cl)ccc1Cl	-9	/	-9	8	/	/	/	/	-4	1.6
Cc1ccc(F)cc1NC(=O)Cc1nn(C)c(=O)c2ccccc12	-53	/	-8	1	/	/	/	/	31	2.6

# An excerpt; count on the stated rates, not on these rows.
